TRPML1 agonist – qHTS for Agonists of the Human Mucolipin Transient Receptor Potential 1 (TRPML1); Mucolipin-1 (Homo sapiens), Q9GZU1; TRPML1-expressing cells, Ca2+ dye fluorescence, FDSS; host cell line not named in the record; reference of the full effect not given here; activation, % (concentration not given with the values); 410,000 tested, 0.12% active; in the data active = activation above about 50%; inconclusive = about 30% to 50%; inactive = below about 30%; further: 0% is about no effect; the text of the record puts the active cut at 80%
Target sequence (Q9GZU1 whole entry, looked up): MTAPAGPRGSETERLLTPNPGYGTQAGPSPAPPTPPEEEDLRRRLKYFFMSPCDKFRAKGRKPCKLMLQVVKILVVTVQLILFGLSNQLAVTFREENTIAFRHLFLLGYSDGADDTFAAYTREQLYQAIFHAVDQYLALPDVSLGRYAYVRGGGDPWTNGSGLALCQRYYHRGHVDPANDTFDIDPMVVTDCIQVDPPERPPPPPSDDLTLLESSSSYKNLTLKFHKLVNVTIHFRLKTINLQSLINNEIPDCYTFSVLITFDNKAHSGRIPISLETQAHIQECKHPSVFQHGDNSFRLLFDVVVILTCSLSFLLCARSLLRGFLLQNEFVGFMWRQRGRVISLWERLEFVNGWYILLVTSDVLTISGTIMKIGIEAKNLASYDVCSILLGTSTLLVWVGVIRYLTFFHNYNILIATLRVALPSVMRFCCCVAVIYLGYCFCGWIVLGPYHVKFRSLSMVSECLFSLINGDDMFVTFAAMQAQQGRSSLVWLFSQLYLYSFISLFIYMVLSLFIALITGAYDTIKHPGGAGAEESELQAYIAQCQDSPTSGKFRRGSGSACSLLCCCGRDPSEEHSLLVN
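Cells: TRPML1-DL, 1X Tet inducer, ~16 h at 37 degrees C/5% CO2. Dye: ABD Ca8 no-wash + quencher, 45-90 min RT. Read: 10 s baseline, compound add, 110 s agonist phase; 54-4 EC80 (4uM final), 110 s antagonist phase.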
Six1-Eya2 blk – qHTS Assay for Inhibitors of the Six1/Eya2 Interaction | AID 651725, 2012 | AlphaScreen GST-Six1/His-Eya2 binding, biochemical; hits give low values; control for the full effect not named in the record | Homeobox protein SIX1 (Homo sapiens) + Protein phosphatase EYA2 (Homo sapiens), … | activity change, % (test concentration not listed) | 360,000 tested, 0.56% active; in the data active = activity change below about -65%; inconclusive = about -30% to -65%; inactive = above about -30%; further: on the % scale 0 is the no-effect control and ±100 the full control effect; compound concentration not given in the record
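Compounds are tested against tagged Six1 and Eya2 proteins bridged by glutathione donor and nickel acceptor beads; after a one-hour incubation at 37 °C without light, AlphaScreen emission is recorded.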
TRPV1 PAM – HTS Assay for Compounds that Act as Potentiators of the Vanilloid Receptor 1; Transient receptor potential cation channel subfamily V member 1 (Homo sapiens), Q8NER1; potentiation, % at 8.33 µM; AID 540277, 2011; TRPV1-expressing cells, Fluo-8 calcium influx, capsaicin EC20 potentiation; host cell line not named in the record; control for the full effect not named in the record; 320,000 tested, 0.02% active; active means potentiation above 80%; inconclusive means 30% to 80%; inactive means below 30%; further: 0% is about no effect
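Fluo-8 calcium influx in TRPV1-expressing cells, kinetic read (ex 480/em 520 nm). Compound added and read 3 min for agonist activity, followed by capsaicin at EC20 final and 2 min further read for enhancement.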
TRPML1 inh – qHTS for Inhibitors of the Human Mucolipin Transient Receptor Potential 1 (TRPML1); TRPML1-inducible cells, Ca2+ dye fluorescence, FDSS; hits give low values; inhibition of EC80 agonist-evoked calcium signal; AID 624415, 2012; 390,000 tested, 0.02% active; activity change, negative = inhibition, % (no concentration beside the values); in the data active means activity change below about -50%; inconclusive means about -30% to -50%; inactive means above about -30%;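 further: stimulus is agonist 54-4 at its EC80 concentration; on the % scale 0 is the no-effect control and ±100 the full control effect; compound concentration not given in the record; the text of the record puts the active cut at -80%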
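Calcium fluorescence in TRPML1-DL cells induced overnight with Tet: a 110 s read after compound pin addition, then a 110 s antagonist read after challenge with 54-4 at 4 uM final (EC80).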
D2 potentiator – Beta-Arrestin HTS for Positive Allosteric Modulators of the Human D2 Dopamine Receptor: Potentiators | D(2) dopamine receptor (Homo sapiens), P14416 | DiscoveRx D2 beta-arrestin cells, luminescence, 90 min; 100% = 57 uM dopamine signal | potentiation, % (no concentration beside the values) | 360,000 tested, 0.23% active | AID 624464, 2012; active = potentiation of 50% or more; inconclusive = 30% to 50%; inactive = 30% or less;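 further: compound concentration not given in the record; tested on top of an EC20 dose of dopamine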
Target sequence (P14416 whole entry, looked up): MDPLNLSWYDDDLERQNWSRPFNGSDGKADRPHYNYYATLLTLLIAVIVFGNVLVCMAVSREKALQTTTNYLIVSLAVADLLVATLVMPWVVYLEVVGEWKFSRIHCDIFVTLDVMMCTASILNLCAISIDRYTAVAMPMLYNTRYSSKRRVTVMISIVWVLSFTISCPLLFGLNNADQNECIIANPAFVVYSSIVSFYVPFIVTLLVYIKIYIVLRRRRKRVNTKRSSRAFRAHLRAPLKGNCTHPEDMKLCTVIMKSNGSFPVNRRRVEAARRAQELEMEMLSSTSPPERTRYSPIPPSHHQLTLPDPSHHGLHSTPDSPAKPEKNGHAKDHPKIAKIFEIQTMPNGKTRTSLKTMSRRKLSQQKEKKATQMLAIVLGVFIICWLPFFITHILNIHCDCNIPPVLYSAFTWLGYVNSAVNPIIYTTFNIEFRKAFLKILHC
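PathHunter beta-arrestin assay in DiscoveRx D2 cells. Compounds were added with an EC20 of dopamine (50 nM final) for 90 min at 37 deg C. Luminescence was read 1 h after detection reagent, with 57 uM dopamine as the EC100 control.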
CtBP-E1A blk – qHTS Assay for Inhibitors of the CtBP/E1A Interaction. 340,000 tested, 0.49% active. AlphaScreen GST-E1A/His-CtBP binding, 1536-well; hits give low values; control for the full effect not named in the record. CtBP / adenovirus E1A interaction (AlphaScreen). activity change, % (concentration not given with the values); in the data active means activity change below about -65%; inconclusive means about -30% to -65%; inactive means above about -30%; further: on the % scale 0 is the no-effect control and ±100 the full control effect
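GST-E1A and His-tagged CtBP (125 nM each as 5X stock) were preincubated with pin-transferred compound for 2 h at 37 °C in the dark, then glutathione donor and nickel acceptor beads were added for 1 h before AlphaScreen reading.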
The depositor's hits bear a star; ? = inconclusive; . = no result given; & = joins results of further samples.

Sample of the layout:
1) Cc1noc(NS(=O)(=O)c2ccc(NC(=O)c3ccc(F)cc3)cc2)c1C
2) Cc1cc(C)c(OCCn2ccnc2)c(C)c1
3) O=C(C1CC(=O)N(c2ccc3c(c2)OCCO3)C1)N1CCN(S(=O)(=O)c2ccccc2F)CC1 (centres undefined)
assay / entry | 1 | 2 | 3
TRPML1 agonist | -0.7 | 0.5 | 2.7
Six1-Eya2 blk | 3 | -7 | -4
TRPV1 PAM | . | -20 | .
TRPML1 inh | 2 | -6 | -10
D2 potentiator | -8 | -3 | 1
CtBP-E1A blk | 2 | 10 | 4

All compounds of this part (from the top)
1) Cc1noc(NS(=O)(=O)c2ccc(NC(=O)c3ccc(F)cc3)cc2)c1C
2) Cc1cc(C)c(OCCn2ccnc2)c(C)c1
3) O=C(C1CC(=O)N(c2ccc3c(c2)OCCO3)C1)N1CCN(S(=O)(=O)c2ccccc2F)CC1 (centres undefined)
4) Cc1nn(C)cc1NC(=O)c1cc2nc(-c3ccco3)cc(C(F)(F)F)n2n1
5) COCCn1c(=NC(=O)C2COc3ccccc3O2)sc2cc(S(N)(=O)=O)ccc21 (centres undefined)
6) CN(C)c1ccc(NC(=O)COC(=O)c2ccc3c(c2)OCO3)cc1
7) N#CCc1ccc(C(=O)c2ccccc2F)s1
8) CCCCC1=C(C(=O)OCC)C(C(=O)OCC)Oc2ccccc21 (centres undefined)
assay / entry | 1 | 2 | 3 | 4 | 5 | 6 | 7 | 8
TRPML1 agonist | -0.7 | 0.5 | 2.7 | 0.8 | -0.7 | 1.7 | -0.4 | -0.9
Six1-Eya2 blk | 3 | -7 | -4 | -7 | 2 | -19 | -10 | 30
TRPV1 PAM | . | -20 | . | -2 | 5 | . | 0 | .
TRPML1 inh | 2 | -6 | -10 | -4 | 7 | 61 | -15 | 10
D2 potentiator | -8 | -3 | 1 | -20 | 12 | -7 | 3 | 0
CtBP-E1A blk | 2 | 10 | 4 | 0 | 14 | -24 | -6 | 23

9) CC(C)NC(=S)N=Nc1c(O)[nH]c2ccc([N+](=O)[O-])cc12
10) CC(=O)c1sc(N/N=C\c2ccc(Br)cc2)nc1C
11) CN1OC[C@@H]2CN(Cc3cc(Cl)cc(Cl)c3)[C@H](c3cccc(-c4ccc(C#N)cc4)c3)C[C@@H]21
12) CC(=O)Nc1cccc(-c2cc(C)c3cc4c(cc3n2)OCO4)c1
13) N#CCCSCc1ccc(C(=O)O)o1
14) COc1ccc2cc(C(=O)C3CCCN(C(=O)c4cnccn4)C3)ccc2c1 (centres undefined)
15) Cc1ccc(S(=O)(=O)N2CCC(C(=O)NCCCN3CCCCCC3)CC2)cc1
16) COC(=O)c1cc(-c2ccccc2)n[nH]1
assay / entry | 9 | 10 | 11 | 12 | 13 | 14 | 15 | 16
TRPML1 agonist | 1.3 | 2.0 | 0.5 | 0.9 | 0.7 | 0.6 | -0.5 | -1.0
Six1-Eya2 blk | -68* | 8 | -3 | -17 | 2 | -3 | -1 | -1
TRPV1 PAM | ? | 23 | . | -18 | -6 | -12 | -5 | 15
TRPML1 inh | 5 | 1 | 68 | 11 | -3 | 74 | -9 | -2
D2 potentiator | -11 | 13 | -1 | 0 | -10 | -3 | -2 | -3
CtBP-E1A blk | 22 | -4 | -2 | -14 | 3 | -11 | -2 | -3

17) COc1cccc(NC(=S)N2C3CCCC2CC(NC(=O)C2CC2)C3)c1 (centres undefined)
18) Cc1cccc(N(C)S(=O)(=O)c2ccc(-c3cc(C)no3)s2)c1
19) CSC1=NCCN1S(=O)(=O)c1ccc(Cl)cc1
20) CSc1ccc(CN2CCC2(C)C(=O)Nc2cnc3ccccc3c2)cc1 (centres undefined)
21) Nc1ccc2oc(-c3ccc4nc[nH]c4c3)nc2c1
22) Cc1ccc(NC(=O)CN(C)C(=O)CCOc2ccccc2C)cc1
23) CCN(CC)C(=O)CN(c1cccc([N+](=O)[O-])c1)S(=O)(=O)c1ccccc1
24) CC(=O)c1ccc(S(=O)(=O)N2CCN(CC(=O)Nc3ccccc3C(=O)NC3CC3)CC2)cc1
assay / entry | 17 | 18 | 19 | 20 | 21 | 22 | 23 | 24
TRPML1 agonist | 0.2 | 0.9&1.0 | 0.4 | 0.5 | 0.1 | -0.6 | 0.3 | -0.1
Six1-Eya2 blk | 9 | 45 | -1 | -14 | -14 | -16 | 3 | 0
TRPV1 PAM | 0 | -18 | 23 | . | 8 | 6 | 12 | -4
TRPML1 inh | -13 | -10&0 | -6 | . | -7 | -4 | -15 | 9
D2 potentiator | 1 | 4 | -6 | -2 | 14 | -9 | 1 | -3
CtBP-E1A blk | 3 | 47 | . | -15 | -29 | -1 | 0 | -3

Part of the list above in order of molecular weight, rising.
17) COc1cccc(NC(=S)N2C3CCCC2CC(NC(=O)C2CC2)C3)c1 (centres undefined)
20) CSc1ccc(CN2CCC2(C)C(=O)Nc2cnc3ccccc3c2)cc1 (centres undefined)
23) CCN(CC)C(=O)CN(c1cccc([N+](=O)[O-])c1)S(=O)(=O)c1ccccc1
assay / entry | 17 | 20 | 23
TRPML1 agonist | 0.2 | 0.5 | 0.3
Six1-Eya2 blk | 9 | -14 | 3
TRPV1 PAM | 0 | . | 12
TRPML1 inh | -13 | . | -15
D2 potentiator | 1 | -2 | 1
CtBP-E1A blk | 3 | -15 | 0

Structures listed so far that contain an NH in an aromatic ring (three):
9) CC(C)NC(=S)N=Nc1c(O)[nH]c2ccc([N+](=O)[O-])cc12
16) COC(=O)c1cc(-c2ccccc2)n[nH]1
21) Nc1ccc2oc(-c3ccc4nc[nH]c4c3)nc2c1
assay / entry | 9 | 16 | 21
TRPML1 agonist | 1.3 | -1.0 | 0.1
Six1-Eya2 blk | -68* | -1 | -14
TRPV1 PAM | ? | 15 | 8
TRPML1 inh | 5 | -2 | -7
D2 potentiator | -11 | -3 | 14
CtBP-E1A blk | 22 | -3 | -29

New compounds follow.
25) Cc1cc(NC(=O)C2CCC2)n(-c2ccccn2)n1
26) CCOc1ccc(C2CC(=O)NC(SCC(=O)OC)=C2C#N)cc1 (centres undefined)
27) Cc1c(C(=O)O)oc2c1/C(=N\O)CCC2
28) CCc1ccccc1-n1c(SCC(=O)N2CCCC2)nc2[nH]ncc2c1=O
29) COc1ccccc1NS(=O)(=O)c1cccc(NC(=O)Nc2ccc(Cl)cc2)c1
30) CCCNC(=O)c1cc2c(c(-c3cccc(-c4ccc(F)cc4)c3)n1)[C@@H](CCO)N(S(=O)C(C)(C)C)C2 (some centres undefined)
31) CC(=O)N1c2ccc(S(=O)(=O)N3CCC(C(=O)N4CCN(c5cccc(C(F)(F)F)c5)CC4)CC3)cc2CC1C (centres undefined)
32) CCOC(=O)C1=C(C)Nc2nc(C)nn2C1c1ccc(C)cc1 (centres undefined)
assay / entry | 25 | 26 | 27 | 28 | 29 | 30 | 31 | 32
TRPML1 agonist | 0.5 | -0.6 | 0.1 | -0.2 | 0.0 | -0.2 | 0.2 | 1.9
Six1-Eya2 blk | -3 | -2 | 1 | -1 | -9 | -9 | -4 | 3
TRPV1 PAM | -4 | 6 | -2 | -23 | 3 | . | -3 | 6
TRPML1 inh | 21 | 15 | 13 | -13 | -14 | 2 | -6 | -5
D2 potentiator | 0 | -1 | -14 | 2 | -9 | -3 | -16 | 0
CtBP-E1A blk | -1 | 3 | 2 | 6 | -3 | 1 | . | 0

33) CC(C)Oc1ccc(CNC(=S)N/N=C/c2ccc([N+](=O)[O-])cc2)cc1
34) O=C(CCCN1C(=O)C2CC=CCC2C1=O)Nc1cccc(F)c1 (centres undefined)
35) CC(Sc1nnc(-c2ccccc2Br)o1)C(=O)N1CCOCC1 (centres undefined)
36) O=C(Nc1nc2c(Br)cc(Br)cc2c(=O)s1)C1CCC1
37) Cc1ccc(N(Cc2cc3ccccc3[nH]c2=O)C(=O)c2ccco2)c(C)c1
38) O=C(Nc1ccc(Cl)cn1)c1cccc(S(=O)(=O)N2CCCCC2)c1
39) CC1=NOC(=O)/C1=C\c1ccc(-c2ccccc2Br)o1
40) CCC(C)Nc1nc(-c2c[nH]c3ccccc23)cs1 (centres undefined)
assay / entry | 33 | 34 | 35 | 36 | 37 | 38 | 39 | 40
TRPML1 agonist | 1.0 | 0.5 | 0.9 | 0.7 | 0.6 | -0.5 | 3.7 | 2.2
Six1-Eya2 blk | -23 | 1 | 2 | 3 | -10 | -9 | -18 | 78
TRPV1 PAM | 3 | 5 | -8 | 3 | -18 | 6 | 16 | 29
TRPML1 inh | 15 | ? | -2 | -20 | 8 | -6 | 35 | -3
D2 potentiator | 29 | 13 | -9 | 5 | -11 | -1 | -8 | 4
CtBP-E1A blk | -11 | 3 | 10 | . | 1 | -18 | 0 | 26

41) COc1cc(OC)c(S(=O)(=O)NCc2cccnc2)cc1NC(C)=O
42) CC(C)=CCc1c(O)cc(O)c2c(=O)c(O[C@@H]3O[C@@H](C)[C@H](O)[C@@H](O)[C@H]3O)c(-c3ccc(O)cc3)oc12
43) CC(C)(C)OC(=O)NCCCC[C@H](NC(=O)[C@H](Cc1c[nH]c2ccccc12)NC(=O)OCc1ccccc1)C(=O)O
44) COc1ccc(C(=O)NCC(C)NC(=O)c2ccc(OC)cc2)cc1 (centres undefined)
45) O=C(Nc1nnc(C2=COCCO2)o1)c1ccc(S(=O)(=O)N2CCCC2)cc1
46) COc1ccc(Cc2nc3ccc(C(=O)NCC4COCCO4)cc3o2)cc1 (centres undefined)
47) N#C/C(=C\c1ccc(O)c(O)c1)C(=O)Nc1ccccc1
48) S=C(NC1CCCCC1)N1CCN(c2ccccn2)CC1
assay / entry | 41 | 42 | 43 | 44 | 45 | 46 | 47 | 48
TRPML1 agonist | 2.4 | . | 0.7 | -0.8 | 0.1 | 0.0 | 0.8&5.1 | -0.3
Six1-Eya2 blk | 1 | -16 | 5 | -4 | -17 | 5 | -3 | 5
TRPV1 PAM | 2 | . | 16 | . | 29 | 8 | 6 | 7
TRPML1 inh | 14 | . | -26 | 14 | -15 | 6 | -3 | 16
D2 potentiator | -44 | 16 | -3 | -23 | -11 | 10 | -11 | -6
CtBP-E1A blk | . | -11 | . | . | 0 | -2 | -7 | -5

49) COC(=O)C(NC(=O)c1ccccc1)=C1CCCCC1
50) Cc1ccc(S(=O)(=O)N(CC(=O)N/N=C/c2ccc(F)cc2)c2cccc3cccnc23)cc1
51) CC(C)CNC(=O)CSc1nnc2ccccn12
52) CCOC(=O)/C(=N\Nc1cc(Cl)ccc1Cl)N1CCOCC1
53) COc1ccc(/C=N/n2c(SC)nnc2-c2ccccc2)c(OC)c1OC
assay / entry | 49 | 50 | 51 | 52 | 53
TRPML1 agonist | -0.6 | 0.1 | -0.6 | 1.8 | -0.9
Six1-Eya2 blk | 2 | 0 | 1 | -5 | -8
TRPV1 PAM | 6 | -2 | -3 | -7 | -6
TRPML1 inh | 14 | 3 | 0 | -7 | -13
D2 potentiator | -8 | -4 | 1 | -5 | 4
CtBP-E1A blk | 3 | 14 | 5 | -2 | 0

Assay outcomes (PubChem)
